Source: PubChem BioAssay
KCNQ2 enhance: KCNQ2 (rat) channel potentiation. B-score at 10 µM. hit rate 0.54% among 310,000. CHO-K1 KCNQ2, FluxOR thallium flux fluorescence; active compounds read high. AID 2239;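 active means fluorescence ratio B-score at least 3 SD of library B-scores, with initial fluorescence B-score within 3 SD, cut at about 5.3 in these data; same plate scores as AID 2156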;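 further: B-score of peak minus minimum over baseline fluorescence ratio after K+ and Tl+ stimulus; positive B-score means potentiation of KCNQ2 with more thallium influx and brighter signal; only the inactives scoring about 0 or higher are listed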
Target sequence (O88943 whole entry, looked up): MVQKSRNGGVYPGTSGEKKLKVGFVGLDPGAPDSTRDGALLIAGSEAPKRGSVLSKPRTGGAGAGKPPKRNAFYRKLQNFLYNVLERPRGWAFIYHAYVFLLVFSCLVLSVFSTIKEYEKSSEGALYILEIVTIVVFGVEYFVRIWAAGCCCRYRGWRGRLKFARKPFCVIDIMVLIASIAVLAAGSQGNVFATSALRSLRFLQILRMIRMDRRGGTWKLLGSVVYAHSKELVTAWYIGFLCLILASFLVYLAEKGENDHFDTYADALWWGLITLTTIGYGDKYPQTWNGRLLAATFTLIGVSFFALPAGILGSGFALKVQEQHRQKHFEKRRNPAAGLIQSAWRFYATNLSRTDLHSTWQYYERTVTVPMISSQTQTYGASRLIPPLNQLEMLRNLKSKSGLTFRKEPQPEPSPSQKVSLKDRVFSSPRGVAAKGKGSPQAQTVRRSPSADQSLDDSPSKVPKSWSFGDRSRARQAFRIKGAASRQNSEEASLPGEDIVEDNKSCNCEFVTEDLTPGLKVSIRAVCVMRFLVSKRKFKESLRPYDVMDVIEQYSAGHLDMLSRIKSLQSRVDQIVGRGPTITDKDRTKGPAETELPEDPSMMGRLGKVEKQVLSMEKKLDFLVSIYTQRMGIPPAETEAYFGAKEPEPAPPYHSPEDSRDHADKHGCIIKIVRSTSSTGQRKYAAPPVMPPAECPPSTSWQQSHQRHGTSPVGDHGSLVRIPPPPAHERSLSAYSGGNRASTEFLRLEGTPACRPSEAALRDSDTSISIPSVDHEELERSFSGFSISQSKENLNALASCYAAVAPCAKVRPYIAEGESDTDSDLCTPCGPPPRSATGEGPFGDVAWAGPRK
KCNQ2 enhance baseline: further read-out of KCNQ2 enhance, marked with its call; B-score; compound at 10 µM; measured here: initial fluorescence intensity artifact check;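 brightness before thallium and not channel activity; 0 = typical well and far values either way flag optical interference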
* = called active by the depositor. Not all compounds are listed; count on the stated rates, not on these rows.

mol,KCNQ2 enhance,KCNQ2 enhance baseline
Cc1nc(-c2cccc(NS(C)(=O)=O)c2)cs1,1.8,1.9
COc1ccccc1CNC(=O)COC(=O)c1cccnc1SCC(=O)NCc1ccccc1OC,0.7,0.01
COc1ccccc1-n1cc(-c2ccc(Cl)cc2)[nH]c1=O,2.5,0.54
Cc1cc(C)c(C#N)c(SCC(=O)NN2CC(=O)N(c3ccccc3F)CC2=O)n1,1.6,-0.01
O=Cc1c(NC2CCCCC2)c2ccccc2[nH]c1=O,1.4,-0.06
COc1ccccc1C(=O)NCCC(=O)NCC(c1ccc(F)cc1)N1CCOCC1 (stereo not drawn),0.03,0.49
CCOc1ccc(NC(=O)C2CC(=O)N=C(N)S2)cc1 (stereo not drawn),0.54,0.82
CCCc1cc(=O)oc2cc3occ(C)c3cc12,0.99,-0.96
CCCC(C)NC(=O)c1ccc(F)cc1 (stereo not drawn),2.1,0.07
COc1ccc(NS(=O)(=O)c2cccc(C(=O)N3CCCCCC3)c2)cc1,0.73,-8.4
Cc1ccc2c(c1)c1c(c(=O)n(-c3ccccc3)c(=O)n1CC(=O)NCC1CCCO1)n2C (stereo not drawn),1.3,0.27
CCOC(=O)C1=C(C)OC(N)=C(C#N)C1c1ccsc1 (stereo not drawn),0.01,0.71
Cc1c(C(=O)N(C)CCC#N)oc2ccc(S(=O)(=O)N3CC(C)CC(C)C3)cc12 (stereo not drawn),1.7,1.2
S=c1[nH]nc(-c2ccccc2)o1,0.54,-0.68
CC1=C(C(=O)Nc2ccccc2)C(c2ccco2)NC(=S)N1 (stereo not drawn),0.06,-1.3
CCC(=O)NNc1ccc(Br)cc1,0.55,0.35
Cc1ccc(C2(C)NC(=O)N(CC(=O)Nc3ccc4c(c3)OCO4)C2=O)cc1 (stereo not drawn),0.12,-1.3
O=C(C1CCC(=O)N(C2CC2)C1)N(CCO)Cc1ccccc1 (stereo not drawn),0.56,-0.06
O=C(O)CCc1nc2ccccc2n(CCc2ccccc2)c1=O,0.99,-0.86
CC(=O)C1=C(O)C(=O)N(Cc2ccccc2)C1c1ccc(N(C)C)cc1 (stereo not drawn),0.05,0.87
CCOc1ccc(NC(=O)c2nccnc2CO)cc1,0.86,-0.65
Cc1ccc(-n2c(SCC(=O)OC(C)C)nnc2-c2ccncc2)cc1,0.02,2.8
Cc1ccc(OCCSc2nc3ccccc3n2CC(=O)O)cc1,0.82,-0.04
CC(=O)c1ccc(NC(=S)N2CCCC(CO)C2)cc1 (stereo not drawn),13*,0.23*
Cc1ccc(C)c(Cn2c3ccccc3c3cnn(CC(=O)NCCCN4CCCCC4)c(=O)c32)c1,0.21,0.02
O=C(Cn1nnc2ccccc21)c1ccccc1,0.14,-0.54
O=C(COc1ccc(Cl)cc1)NNC(=O)CSc1nncs1,0.77,0.03
Cc1cc(N/N=C/c2ccc(Cl)cc2)nc(NCc2ccccc2)n1,0.12,-2.5
Fc1cccc2sc(Nc3nnc(-c4ccco4)o3)nc12,16*,0.03*
C=CCCN(C(C(=O)OC)C(C)C)S(=O)(=O)c1ccccc1Br (stereo not drawn),1.8,0.6
Cc1cc(C)cc(-n2c(SCC(=O)Nc3cccc(S(=O)(=O)NC4=NCCCCC4)c3)nc3ccccc3c2=O)c1,0.03,0.07
COc1cccc(NC(=O)c2oc3ccc(S(=O)(=O)N4CCOCC4)cc3c2C)c1,1.9,-0.44
CCN(C(=O)c1ccc2c(=O)n3c(nc2c1)CCCCC3)c1ccc(F)cc1,0.39,0.82
O=C(Cn1nc2ccccc2n1)N/N=C/c1cc([N+](=O)[O-])ccc1O,1.8,-1.2
CCCC(=O)Nc1nnc(S(=O)(=O)N(CC)c2ccccc2)s1,2.1,0.64
Cc1cccc(NS(=O)(=O)c2cccc(C(=O)N3CCCCCC3)c2)c1,0.06,2
Cc1nc2ccc(NC(=O)c3cccc(C(F)(F)F)c3)cc2o1,2.7,0.61
COc1ccc(NS(=O)(=O)c2cccc(C(=O)NNC(=O)c3ccc(Br)o3)c2)cc1,3.5,-1.8
COc1ccc(-c2cc(=O)c3cc(F)ccc3[nH]2)cc1,1.6,1.6
Cc1ccc(Cn2ccc(NC(=O)c3noc4c3CCCC4)n2)cc1,0.73,-1.2
O=C(Nc1ccc(NC(=O)C2CCCCC2)cn1)c1ccco1,0.06,1.2
O=C(Nc1ccc(C2=NCCN2)cc1)c1ccc(Cl)c(C(=O)Nc2ccc(C3=NCCN3)cc2)c1,0.07,-0.28
CCOC(=O)/C(C#N)=C/c1c[nH]c2ccccc12,0.05,0.78
COc1ccc2nc(/C=N/NC(=O)CCCCCNC(=O)OC(C)(C)C)ccc2c1,0.01,-0.82
CCCCc1nc2cc(C(=O)N3CCC[C@H]3CO)ccc2o1,0.09,-0.13
O=C(C1=C(O)C(=O)N(CCN2CCOCC2)C1c1ccc(F)cc1)c1cc2ccccc2o1 (stereo not drawn),0.07,0.64
O=C(O)CSc1nc2c(c(C(F)(F)F)n1)CCc1ccccc1-2,0.16,1.2
O=C(Nc1cccc(C(F)(F)F)c1)C1CCN(S(=O)(=O)c2ccc(N3CCCC3=O)cc2)CC1,0.62,0.1
Cc1ccc(C(C)NC(=O)c2ccco2)cc1C (stereo not drawn),1.4,-0.1
CC1=NN(C(N)=S)C(=O)C1N=Nc1cccc(C(=O)O)c1 (stereo not drawn),1.2,0.63
COc1ccc(/C=C/C(=O)NCC2COc3ccccc3O2)c(OC)c1 (stereo not drawn),0.46,1.1
COCCN(C(=O)CSc1ncn[nH]1)c1c(N)n(Cc2ccccc2)c(=O)[nH]c1=O,0.11,0.46
OCC[C@@H]1C[C@H](O)[C@@H](O)[C@]2(Cc3ccccc3CCO2)O1,0.17,-0.36
C=CCOc1c(Br)cc(CNn2c(C)n[nH]c2=S)cc1OC,0.37,0.49
CCN(CC(=O)Nc1ccccc1C(F)(F)F)C(=O)c1ccc(N2C(=O)CCC2=O)cc1,0.88,-0.7
CC(C)C(C)NC(=O)CN1C(=O)NC2(CCc3ccccc32)C1=O (stereo not drawn),0.03,-1.3
N#Cc1c2c(c(NCCCN3CCOCC3)n3c1nc1ccccc13)CCC2,0.22,-0.17
CC(=O)Nc1nc2c(ncn2COCCOC(C)=O)c(=O)[nH]1,0.02,0.01
COc1cc2nc(CN3CCN(C(C)=O)CC3)[nH]c(=O)c2cc1OC,0.01,1.6
CC(C)(C)c1ccc(C(=O)Nc2c3c(nn2C(C)(C)C)CS(=O)(=O)C3)cc1,0.41,0.43

(list continues)
Results follow in this order: KCNQ2 enhance, KCNQ2 enhance baseline
> CCOC(=O)c1cc(-c2ccccc2)nc2nc(N3CCCCC3)sc12
→ 0.66, 0.64
> COC(=O)c1ccc(C23CC4(C2)[C@H](CN(Cc2ccc(C(F)(F)F)cc2)[C@@H]4c2ccccc2)C3c2ccc(C(F)(F)F)cc2)cc1 (stereo partly drawn)
→ 0.15, -2.2
> COc1ccc(CCn2nc(C)c([N+](=O)[O-])c2C)cc1
→ 1.5, 0.64
> CS(=O)(=O)N(CC(=O)N1CCCCCC1)c1cc(Cl)ccc1Cl
→ 0.01, -3.4
> CC1(C)CC(=O)C(CC2C(=O)CC(C)(C)CC2=O)C(=O)C1
→ 1.4, 1.2
> Cc1ccsc1-c1n[nH]c(=S)n1C1CCCCC1
→ 0.6, 1.1
> COc1ccccc1S(=O)(=O)Cc1ccc(C(=O)NC2CCCCC2)o1
→ 0.09, -0.65
> Cc1cc2ccccc2c(=O)n1CC(=O)NCc1ccco1
→ 2.2, -2.3
> Cc1cc(=O)[nH]c(SCC(=O)N2C(C)CCCC2C)n1 (stereo not drawn)
→ 1.2, 0.83
> Cc1ccc(S(=O)(=O)NC2(C(F)(F)F)C(=O)Nc3c2c(=O)n(C)c(=O)n3C)cc1 (stereo not drawn)
→ 0.73, -1.5
> CC1(CC(=O)N/N=C/c2ccc(-c3cccc(C(F)(F)F)c3)o2)OCCO1
→ 1.6, -2.1
> COc1ccc(C2=NN(CN3C(=O)C(=O)c4ccccc43)C(c3ccc(Br)cc3)C2)cc1 (stereo not drawn)
→ 0.1, -1.3
> COc1ccccc1S(=O)(=O)N1CCN(S(=O)(=O)c2ccccc2C#N)CC1
→ 0.21, 0.05
> COc1ccc([N+](=O)[O-])cc1NC(=O)CCNC(=O)Cn1ccc2ccccc2c1=O
→ 1.9, -0.31
> COc1ccc(CC(=O)Nc2nnc(C(C)C)s2)cc1
→ 0.95, -2.4
> C=C(C)CSc1cc(C)c(C#N)c2nc3ccccc3n12
→ 0.05, -0.71
> Cn1c(=O)c2c(nc(SCc3nc(N)nc(N4CCCCC4)n3)n2C)n(C)c1=O
→ 2, -0.23
> COc1cc(OC)cc(C(=O)Nc2ccccc2S(=O)(=O)N2CCCC2OC(C)=O)c1 (stereo not drawn)
→ 0.13, -2.4
> COc1ccc(CCNC(=O)c2cc(-c3ccc(C)c(C)c3O)n[nH]2)cc1OC
→ 1.5, 0.03
> CCCC(=O)Nc1ncnc2c1ncn2[C@@H]1O[C@@H]2COP(=O)(O)O[C@H]2[C@H]1OC(=O)CCC
→ 1.9, 1.2

Pulled one by one from the entries so far, 4 records:
Results follow in this order: KCNQ2 enhance, KCNQ2 enhance baseline
> Cc1cc2ccccc2c(=O)n1CC(=O)NCc1ccco1
→ 2.2, -2.3
> COc1ccc(C2=NN(CN3C(=O)C(=O)c4ccccc43)C(c3ccc(Br)cc3)C2)cc1 (stereo not drawn)
→ 0.1, -1.3
> COc1ccc(CCn2nc(C)c([N+](=O)[O-])c2C)cc1
→ 1.5, 0.64
> CC1(CC(=O)N/N=C/c2ccc(-c3cccc(C(F)(F)F)c3)o2)OCCO1
→ 1.6, -2.1

Following part
Results follow in this order: KCNQ2 enhance, KCNQ2 enhance baseline
> CC(NS(=O)(=O)c1ccc2c(c1)C(=O)c1cc(S(=O)(=O)NC(C)C(=O)O)ccc1-2)C(=O)O (stereo not drawn)
→ 0.34, 0.01
> CN(C(=O)Cc1c(C(=O)O)n(C)c2ccccc12)c1ccc(Cl)cc1
→ 0.02, 1.6
> Cc1cccc(-n2cccc2)c1C#N
→ 1.3, 0.35
> CCc1nccn1CCC(=O)N1CCCC(Nc2ccc(F)cc2)C1 (stereo not drawn)
→ 1.1, -0.79
> O=c1[nH]cnc2c1c(-c1ccccc1)cn2-c1ccc(Br)cc1
→ 0.02, -1.1
> COc1ccc2c(c1)OC1=C(C(=O)CCC1)C2C1=C(O)CCCC1=O (stereo not drawn)
→ 0.52, -0.18
> COc1ccc(N2CCN(Cc3oc(CO)cc(=O)c3O)CC2)cc1
→ 2.3, -0.01
> CC(CN1C(C)CCCC1C)OC(=O)c1ccccc1Cl (stereo not drawn)
→ 0.25, -0.57
> CCCCN1C(=O)/C(=C2/Sc3ccccc3N2C)S/C1=N\c1ncn[nH]1
→ 1.6, -0.04
> C#Cc1ccc([C@@H]2C=C(C(=O)O)O[C@H](OCC)[C@H]2CCCO)cc1
→ 0.14, -0.85
> Cc1onc(-c2ccccc2Cl)c1C(=O)OCN1C(=O)c2ccccc2C1=O
→ 0.47, -0.68
> CCN(CC)CCn1c2c(c(SCC(=O)Nc3nc(C)cs3)nc1=O)CCC2
→ 0.4, 0.17
> CC(/C=N\NC(=O)c1ccc2c(c1)OCO2)c1ccccc1 (stereo not drawn)
→ 1, -0.67
> CCCCN(CCCNC(=O)c1ccc2nc(N3CCOCC3)sc2c1)Cc1ccccc1
→ 0.56, -0.29
> CSC1=NCCN1C(=O)c1c(-c2c(F)cccc2Cl)noc1C
→ 0.13, -0.29
> CC(=O)Nc1ccc(NS(=O)(=O)c2ccc(CN3C(=O)c4cccnc4C3=O)cc2)cc1
→ 0.11, 1.8
> COc1ccc(NC(=O)C23CC4CC(C2)CC(c2ccccc2)(C4)C3)c(OC)c1
→ 2.1, -0.28
> O=C(COc1ccccc1)NCC(c1cccs1)N1CCOCC1 (stereo not drawn)
→ 1.3, 0.07
> COc1cc(OC)c(CN2CCc3c([nH]c4ccccc34)C2)cc1Br
→ 1.3, 1.8
> CCOC(=O)C1CCCN(C(=O)c2ccc(CNS(=O)(=O)c3ccc(C)cc3)cc2)C1 (stereo not drawn)
→ 0.9, -0.73

Given as labelled records: 4 of the compounds above
COc1ccc(NS(=O)(=O)c2cccc(C(=O)NNC(=O)c3ccc(Br)o3)c2)cc1
  KCNQ2 enhance: 3.5
  KCNQ2 enhance baseline: -1.8
CCN(CC)CCn1c2c(c(SCC(=O)Nc3nc(C)cs3)nc1=O)CCC2
  KCNQ2 enhance: 0.4
  KCNQ2 enhance baseline: 0.17
COC(=O)c1ccc(C23CC4(C2)[C@H](CN(Cc2ccc(C(F)(F)F)cc2)[C@@H]4c2ccccc2)C3c2ccc(C(F)(F)F)cc2)cc1 (stereo partly drawn)
  KCNQ2 enhance: 0.15
  KCNQ2 enhance baseline: -2.2
Cc1cc(C)c(C#N)c(SCC(=O)NN2CC(=O)N(c3ccccc3F)CC2=O)n1
  KCNQ2 enhance: 1.6
  KCNQ2 enhance baseline: -0.01

Later entries:
Results follow in this order: KCNQ2 enhance, KCNQ2 enhance baseline
> COc1cccc(N2CC(=O)N(c3cccc(OC)c3)CC2=O)c1
→ 0.27, 0.83
> COc1ccc(C2C3=C(CCCC3=O)Nc3n[nH]c(C)c32)cc1OC (stereo not drawn)
→ 1.3, -0.35
> COc1ccc(N2C(=O)C3CCCN3C2c2ccc(C)cc2)cc1 (stereo not drawn)
→ 1.5, -0.1
> CC(C)(C)n1nc2c(c1NC(=O)Cc1ccc(F)cc1)CSC2
→ 14*, 0.88*
> COc1ccc(-n2c3c(c(=O)[nH]c2=O)C(NS(=O)(=O)c2ccc(Cl)cc2)(C(F)(F)F)C(=O)N3)cc1 (stereo not drawn)
→ 0.31, 0.4
